Screening data: PubChem, several laboratories
Bfl-1 A1 inh = inhibitors of the anti-apoptotic protein A1, read as caspase activation | MEF A1-2A-BIM cells, Caspase-Glo 3/7 luminescence, 3 h; percent of clofoctol response, vehicle zero | caspase activation, % (concentration not given with the values) | 0.066% of 330,000 active | AID 2462;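 active means over half of replicate activation scores above 10%, or exactly half above 10 with the replicate mean above 10; inconclusive means replicate mean below 10 yet half the replicates above 10; inactive means over half of replicates below 10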;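 further: wells of about 30 µL received 50 nL stock; many hits fall short of the cut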
LANA-H2B inh = blocks KSHV LANA binding to histone H2A/H2B. inhibition, % (test concentration not listed). Q9QR71. AID 2629. 0.6% of 320,000 active. cell-free LANA-H2A/H2B peptide, fluorescence polarization; in the data active means inhibition mostly above about 10%, no sharp cut-off; inactive means mostly below about 6.7%;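 further: stock transfer was 7.5 nL into about 10 µL; 0% = median of vehicle wells and 100% = median of positive control wells; one replicate is shown; the record names a cut of 25% in any replicate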
RanGTP-Imp inh = disruptors of Ran-importin-beta complex formation – biochemical, FRET, CFP-Ran, YFP-importin-beta, homogeneous, primary screen | cell-free CFP-Ran/YFP-importin-beta FRET ratio | inhibition, % (test concentration not listed) | 1.1% of 300,000 active | AID 2216;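 active means most replicates above 15%; inconclusive means exactly half above 15%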;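 further: 0% = DMSO wells and 100% = Ran loaded with GDP instead of GTP; wells of about 40 µL received 100 nL stock; the first replicate is given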
Calb FLC = C. albicans growth modulation with fluconazole; C. albicans CaCi-2 (fluconazole-resistant clinical isolate) + fluconazole, Alamar Blue growth, 48 h; growth inhibition, % (no concentration beside the values); 0.57% of 300,000 active; AID 1979;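 active means most replicates above 75%; inconclusive means exactly half above 75%; inactive means most below 75%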;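 further: all wells also contain fluconazole at 8 µg/ml as a sub-toxic cotreatment; 0% = median of DMSO wells and 100% = median of geldanamycin control wells; wells of about 8 µL received 7.5 nL stock; the first replicate is given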
Beta cell apopt = blocks beta cell apoptosis; INS-1E cytokine-induced death, ATP luminescence, 48 h; percent of positive-control rescue, neutral wells zero; protection from apoptosis, % (no concentration beside the values); 0.8% of 300,000 active; AID 435005;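 active means all replicates at 75% or more, or half of them and the mean; inconclusive means half reach 75% but not the mean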;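 further: 0% = cytokine-treated negative control wells and 100% = positive control rescue; higher means more ATP so stronger rescue from cytokine killing; wells of about 40 µL received 100 nL stock; the first replicate is given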
UCH37 inh = human UCH37 deubiquitinating enzyme inhibition. AID 588478. 0.33% of 330,000 active. purified proteasome/UCH37, Ub-AMC cleavage fluorescence. inhibition, % (test concentration not listed). Q9Y5K5;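 active means mean of two replicates above 20%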;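 further: 0% = compound-free wells with enzyme and 100% = wells lacking proteasome; stock transfer was 100 nL into about 20 µL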
Target sequence (Q9Y5K5 whole entry, looked up): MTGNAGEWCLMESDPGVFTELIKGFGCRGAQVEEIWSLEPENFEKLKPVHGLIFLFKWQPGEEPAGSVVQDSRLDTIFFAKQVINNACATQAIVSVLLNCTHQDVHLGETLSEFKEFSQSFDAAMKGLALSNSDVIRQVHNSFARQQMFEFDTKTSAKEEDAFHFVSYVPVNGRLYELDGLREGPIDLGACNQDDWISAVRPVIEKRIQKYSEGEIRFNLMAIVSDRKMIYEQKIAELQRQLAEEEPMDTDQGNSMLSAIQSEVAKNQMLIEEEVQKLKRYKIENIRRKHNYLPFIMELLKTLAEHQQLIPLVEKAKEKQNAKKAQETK
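Material: Human UCH37 enzyme supplied as purified proteasome complex | Schedule: 30 min compound-proteasome preincubation then 25 min substrate reaction, room temperature | Detection: AMC fluorescence from Ub-AMC cleavage, excitation 355 nm, emission 460 nm | Benchmarks: Wells without proteasome as full block, compound-free enzyme plus substrate as uninhibited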
T cruzi repl = T. cruzi replication inhibition; T. cruzi beta-gal in NIH3T3, luminescence, 90 h; inhibition, % (test concentration not listed); 1.4% of 300,000 active; AID 1885;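 active means mean inhibition across valid replicates above about 55%, limit read from the data; inconclusive means mean below that limit but half or more replicates reach it; inactive means mean below it, under half of replicates reach it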;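 further: signal also drops with host cell toxicity which is not excluded here; 0% = plate median of DMSO wells and 100% = zero luminescence signal; higher percent means less beta-gal luminescence so fewer parasites; stock transfer was 50 nL into about 50 µL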
B2AR ag = activates human beta-2 adrenergic receptor causing internalization; P07550; Am2.2-beta2AR cells, FAP receptor internalization, flow cytometry; reference of the scale not given here; response, % (concentration not given with the values); 0.43% of 340,000 active;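 active means response above a set limit, near 3 SD of response in nonfluorescent compounds, cut at about 42% in these data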;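 further: stock transfer was 100 nL into about 11 µL; a reference agonist was the positive control; negative values mostly stem from fluorescent compounds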
Target sequence (P07550 whole entry, looked up): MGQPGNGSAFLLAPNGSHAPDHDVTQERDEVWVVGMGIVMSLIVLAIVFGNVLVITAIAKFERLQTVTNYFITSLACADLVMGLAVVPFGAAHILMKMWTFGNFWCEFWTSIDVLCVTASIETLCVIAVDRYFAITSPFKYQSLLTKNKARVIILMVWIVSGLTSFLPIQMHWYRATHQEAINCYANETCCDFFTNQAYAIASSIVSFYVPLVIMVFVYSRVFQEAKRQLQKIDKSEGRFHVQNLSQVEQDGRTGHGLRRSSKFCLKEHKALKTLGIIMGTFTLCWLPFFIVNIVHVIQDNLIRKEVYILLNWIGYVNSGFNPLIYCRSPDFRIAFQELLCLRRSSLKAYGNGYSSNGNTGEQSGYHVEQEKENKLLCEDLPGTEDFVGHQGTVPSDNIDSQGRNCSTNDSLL
* = called active by the depositor; ? = inconclusive; nt = not tested or not shown.

Start of the data: the first three records as a preview:
1	O=C(Cn1cc(C(=O)c2cccs2)c2ccccc21)NCC1CCCO1 (configuration not stated)
2	COc1ccc(C2c3c(oc4ccc(Cl)cc4c3=O)C(=O)N2Cc2ccco2)cc1OC (configuration not stated)
3	O=C(CN1CCN(Cc2cccc(F)c2)CC1)NCc1ccccc1

compound no.	1	2	3
Bfl-1 A1 inh	0.5	nt	-1.0
LANA-H2B inh	-0.5	nt	1.2
RanGTP-Imp inh	1.9	-2.7	4.9
Calb FLC	-13	12	-8
Beta cell apopt	-5	nt	-3
UCH37 inh	8.0	1.0	-0.7
T cruzi repl	13	-1	11
B2AR ag	-9	nt	5

Results, repeating the preview:
1	O=C(Cn1cc(C(=O)c2cccs2)c2ccccc21)NCC1CCCO1 (configuration not stated)
2	COc1ccc(C2c3c(oc4ccc(Cl)cc4c3=O)C(=O)N2Cc2ccco2)cc1OC (configuration not stated)
3	O=C(CN1CCN(Cc2cccc(F)c2)CC1)NCc1ccccc1
4	Cc1c(C(=O)N2CC3(CC(c4cccc(NC(=O)CC(c5ccccc5)c5ccccc5)c4)=NO3)C[C@@H]2C(N)=O)cc([N+](=O)[O-])cc1[N+](=O)[O-] (some centres not stated)
5	N#Cc1cn(OCc2ccccc2)c(=O)[nH]c1=O
6	Cc1nnc(SC(C)C(=O)Nc2sc3c(c2C#N)CCCC3)[nH]c1=O (configuration not stated)
7	CN(C)S(=O)(=O)c1cccc(NC(=O)c2ccc(-n3cncn3)c([N+](=O)[O-])c2)c1
8	CSc1cccc(NC(N)=S)c1

compound no.	1	2	3	4	5	6	7	8
Bfl-1 A1 inh	0.5	nt	-1.0	-1.5	-0.2	0.3	-0.9	0.2
LANA-H2B inh	-0.5	nt	1.2	-1.0	2.8	-1.9	-0.3	-2.2
RanGTP-Imp inh	1.9	-2.7	4.9	3.1	-2.8	-0.1	-4.4	-1.0
Calb FLC	-13	12	-8	0	17	-6	-7	-10
Beta cell apopt	-5	nt	-3	-5	1	2	-6	0
UCH37 inh	8.0	1.0	-0.7	5.2	1.2	3.4	-0.4	-0.3
T cruzi repl	13	-1	11	67*	-6	-3	-5	-9
B2AR ag	-9	nt	5	6	6	7	10	0

9	CC1(c2ccccc2)NC(=O)N(CC(=O)Nc2ccc(N3CCOCC3)cc2)C1=O (configuration not stated)
10	Cc1c(NC(=O)COc2ccc(C(C)C)cc2)c(=O)n(-c2ccccc2)n1C
11	O=C(CSc1nccn1-c1ccc(Cl)cc1)NCc1ccc2c(c1)OCO2
12	CCOC(=O)N1CCN(C(=O)CNC(=O)c2nn(-c3ccc(OC)c(Cl)c3)c(=O)c3ccccc23)CC1
13	CC(C)Sc1nc2c(c(=O)[nH]c(=O)n2C)n1Cc1ccccc1
14	CC(C)CC1NC(=O)N(CC(=O)Nc2ccc3c(c2)OCCO3)C1=O (configuration not stated)
15	Cc1cccc(C(=O)NCC(=O)OCc2nc(N)nc(Nc3ccccc3C)n2)c1
16	CN(C)CCOC(=O)C12CC3(C)CC(C)(CC(C)(C3)C1)C2

compound no.	9	10	11	12	13	14	15	16
Bfl-1 A1 inh	-0.8	-0.1	0.0	1.0	-0.7	0.4	-1.3	-0.3
LANA-H2B inh	-1.7	-0.4	0.1	-2.9	1.1	-3.8	-4.6	-2.7
RanGTP-Imp inh	nt	1.7	-9.9	-2.5	0.9	nt	nt	?
Calb FLC	nt	-1	-4	-7	8	nt	nt	1
Beta cell apopt	0	nt	2	-3	2	1	0	-1
UCH37 inh	2.8	6.4	6.9	-15	2.6	-2.4	-2.5	7.3
T cruzi repl	nt	-20	-5	6	9	nt	nt	37
B2AR ag	-4	-9	-15	7	-5	-2	-6	14

17	O=C(NN1CCCCC1)c1ccc(COc2ccc(Cl)cc2)cc1
18	COc1ccccc1C(C)Nc1ccc(S(=O)(=O)N2CCN(C)CC2)cc1[N+](=O)[O-] (configuration not stated)
19	O=C(/C=C/c1ccc(Cl)cc1Cl)Nc1cccc(S(=O)(=O)NC2=NCCCCC2)c1
20	O=C(COc1ccc(Cl)cc1)NCc1nnc(SCC(=O)Nc2ccccc2)o1
21	O=C(C1CCCCC1)N1CCN(c2ncccn2)CC1
22	O=C(Nc1cccc(Cl)c1N1CCCC1)c1cccc(-c2cc3ccccc3oc2=O)c1
23	O=C(CN1CCN(c2ccc(F)cc2)CC1)Nc1ccccc1[N+](=O)[O-]
24	CCCCCN(C(=O)CCC(=O)OCC(=O)Nc1cccc(CC)c1)c1c(N)n(CCCC)c(=O)[nH]c1=O

compound no.	17	18	19	20	21	22	23	24
Bfl-1 A1 inh	-0.1	0.3	0.0	0.2	1.6	-1.3	0.6	0.9
LANA-H2B inh	1.3	-4.8	-0.6	3.7	-3.1	4.2	3.7	1.9
RanGTP-Imp inh	-1.1	nt	3.9	0.1	-1.4	4.4	4.7	nt
Calb FLC	-3	nt	1	-8	-22	13	10	-1
Beta cell apopt	-1	6	-1	-5	-2	11	6	-5
UCH37 inh	-0.4	5.3	5.9	-0.5	-1.2	-28	6.5	-0.2
T cruzi repl	-30	nt	-64	-4	-12	6	-6	-5
B2AR ag	9	7	-8	-1	-5	0	0	0

25	O=C(O)c1cnn(-c2ccccc2)c1C(F)(F)F
26	CCOC(=O)c1[nH]c(C)c(C(=O)Nc2ccc3c(c2)CCC3)c1C
27	Cc1ccc(S(=O)(=O)N2CCN(CC(=O)NC(=O)NCc3ccccc3)CC2)cc1C
28	COc1ccc(S(=O)(=O)N(CC(=O)NN=C2CCN(C)CC2)c2cc(Cl)ccc2OC)cc1OC
29	O=C(CN(C(=O)c1csnn1)c1ccccc1)NCCc1ccccc1
30	O=C(c1ccc(S(=O)(=O)NCC2CCCO2)cc1)N1CCN(c2ccccc2F)CC1 (configuration not stated)
31	CN(Cc1cc2ccccc2[nH]c1=O)S(=O)(=O)c1ccccc1
32	O=C(COc1ccc(S(=O)(=O)N2CCOCC2)cc1)N1CCN(c2ccccc2)CC1

compound no.	25	26	27	28	29	30	31	32
Bfl-1 A1 inh	-0.2	0.0	-0.6	0.1	-0.7	0.8	0.9	0.4
LANA-H2B inh	4.4	-1.3	-2.4	-1.6	0.4	-4.7	2.6	-0.2
RanGTP-Imp inh	4.5	-0.1	-1.2	-2.6	-1.5	1.1	0.7	0.1
Calb FLC	-31	14	-4	8	2	38	-7	0
Beta cell apopt	nt	7	9	-6	-8	0	1	-1
UCH37 inh	3.8	1.8	-0.2	0.7	0.6	-0.5	nt	1.0
T cruzi repl	-11	8	9	9	-3	-16	-4	-17
B2AR ag	1	-2	2	-10	3	-5	-9	2

33	OC(c1ccc(Cl)cc1)C(CN1CCOCC1)c1ccccc1 (configuration not stated)
34	C=C1CC[C@H](O)C/C1=C/C=C1\CCC[C@]2(C)[C@@H]([C@H](C)/C=C/[C@H](C)C(C)C)CC[C@@H]12
35	O=C(CCN1CCN(CC(=O)Nc2ccccc2Cl)CC1)Nc1ccccc1F
36	CC(C)N(C(=O)Cn1cc(S(=O)(=O)CC(=O)NCc2ccc(F)cc2)c2ccccc21)C(C)C
37	CCCc1nc2nc(C)c(NS(=O)(=O)c3ccc(F)cc3)c(=O)n2[nH]1
38	COCCn1c(C)nnc1SCC(=O)NNC(=O)c1ccc(Br)cc1
39	COc1cccc2sc(N(CCCN(C)C)C(=O)c3ccc(S(=O)(=O)N4CCc5ccccc5C4)cc3)nc12
40	CCN(CC)C(=S)Oc1c(Cl)cccc1Cl

compound no.	33	34	35	36	37	38	39	40
Bfl-1 A1 inh	0.7	0.9	1.6	0.5	0.5	nt	-0.9	?
LANA-H2B inh	-3.8	-8.0	7.2	4.5	-4.8	nt	-8.5	-2.4
RanGTP-Imp inh	?	nt	8.1	-0.2	2.9	?	6.2	2.0
Calb FLC	-9	nt	-2	-5	11	-1	9	-3
Beta cell apopt	0	1	0	nt	1	nt	1	-15
UCH37 inh	6.2	0.1	-0.3	3.3	3.1	4.4	2.2	5.6
T cruzi repl	-10	nt	14	3	0	1	47	-8
B2AR ag	-1	-3	-3	4	-4	0	56*	1

41	O=C(Nc1nnc(-c2ccc(F)cc2)s1)C1CCN(S(=O)(=O)c2ccc(Cl)cc2)CC1
42	CCn1cnc2cc(NC(=O)c3ccc(C)cc3)ccc21
43	C#CCOCCOCCOCCNc1nc(N2CCN(C(=O)[C@H](CCCCN)n3cc([C@@H](N)C(C)CC)nn3)CC2)nc(N2CCN(C(=O)[C@H](CCCCN)n3cc([C@@H](N)CO)nn3)CC2)n1 (some centres not stated)
44	CCCC(=O)Nc1nnc(CC(=O)OCC)s1
45	O=C(O)c1nc(-c2ccccc2)n(-c2cccc(C(F)(F)F)c2)n1
46	Cc1c(C=O)c2ccccn2c1C(=O)c1cccc([N+](=O)[O-])c1
47	Cc1ccccc1OCC(=O)NC(Cc1c[nH]c2ccccc12)C(=O)O (configuration not stated)
48	Cc1cc(C)c(S(=O)(=O)n2c([N+](=O)[O-])cnc2C)c(C)c1

compound no.	41	42	43	44	45	46	47	48
Bfl-1 A1 inh	0.3	-0.8	0.0	0.0	0.3	-0.8	0.7	0.9
LANA-H2B inh	-3.8	-1.3	-3.4	4.6	0.0	4.3	-2.8	-0.2
RanGTP-Imp inh	-2.5	3.5	?	5.2	-1.8	5.3	-3.8	-3.4
Calb FLC	-4	9	2	4	1	17	33	-8
Beta cell apopt	0	3	-9	-3	-7	-2	-3	nt
UCH37 inh	3.0	nt	nt	-0.5	2.2	11	0.5	4.0
T cruzi repl	-3	-5	-4	-5	-19	3	-7	-9
B2AR ag	1	1	nt	8	3	11	-4	1

49	CN(C)CCOC(=O)c1ccc(COc2ccccc2Br)o1
50	Cc1ccc(/C=C/C(=O)O)cc1S(=O)(=O)Nc1ccccc1C(=O)O
51	Cc1nc(-c2ccccn2)nc(SCC(=O)c2ccccc2)c1Cl
52	N#Cc1nc(-c2ccc(OCc3ccc(Cl)cc3)cc2)oc1NCc1cccnc1

compound no.	49	50	51	52
Bfl-1 A1 inh	-1.2	0.3	0.7	-0.6
LANA-H2B inh	0.3	-7.0	-4.3	0.2
RanGTP-Imp inh	?	3.7	7.8	-4.4
Calb FLC	3	-1	3	-10
Beta cell apopt	nt	nt	22	7
UCH37 inh	3.2	0.6	2.2	4.4
T cruzi repl	-3	-12	9	5
B2AR ag	-3	-4	-11	8

Whole records from above. Order of screens: Bfl-1 A1 inh | LANA-H2B inh | RanGTP-Imp inh | Calb FLC | Beta cell apopt | UCH37 inh | T cruzi repl | B2AR ag
`N#Cc1nc(-c2ccc(OCc3ccc(Cl)cc3)cc2)oc1NCc1cccnc1` is entered as -0.6 | 0.2 | -4.4 | -10 | 7 | 4.4 | 5 | 8
`Cc1nc(-c2ccccn2)nc(SCC(=O)c2ccccc2)c1Cl` is entered as 0.7 | -4.3 | 7.8 | 3 | 22 | 2.2 | 9 | -11
`CN(C)CCOC(=O)c1ccc(COc2ccccc2Br)o1` is entered as -1.2 | 0.3 | ? | 3 | nt | 3.2 | -3 | -3

No enrichment for hits. Share with any hit: about 4.3%.
